MgrA DNA FP: S. aureus MgrA activity modulators, primary screen, biochemical, S. aureus Newman, fluorescence polarization | MgrA-DNA binding | inhibition, %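 (about 10 µg/mL by stock and volumes)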 | actives 0.13% (n = 84,000) | AID 602314, 2012;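 active = above 50% in either of two replicates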;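 also: 0% = protein plus DNA without compound and 100% = DNA alone without protein; higher means less MgrA bound to DNA so lower polarization; one replicate is shown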
S aureus helic: inhibitors of S. aureus replicative helicase, primary screen, biochemical, fluorescence unwinding readout; actives 0.05% (n = 120,000); purified S. aureus helicase, fluorescence unwinding assay; about half of the hits fall short of the stated cut; inhibition, %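 (tested at about 80 µM)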; AID 485395, 2010;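 active = both duplicates at 50% or more, or one of them with a favoured structure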;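 also: 0% = mean of negative control wells and 100% = mean of positive control wells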
* hit, by the source's call; · = not tested or not shown; & = joins results of further samples.

SMILES	MgrA DNA FP	S aureus helic
CN1CCN(CCCNC(=O)c2cc3c(=O)[nH]c4ccccc4c3n2C)CC1	·	8
CC(NC(=O)CSc1cccc[n+]1[O-])C1CC2CCC1C2 (stereo not drawn)	·	3
CC1CN(C(=O)CNC(=O)COc2ccccc2)CC(C)O1 (stereo not drawn)	·	-4
COC(=O)C1CCN(S(=O)(=O)c2c(C)c(C)cc(C)c2C)CC1	2.5	13
COc1ccccc1Oc1cc(C)nc2ncnn12	·	-7
Cn1c(SCc2cnc(-c3ccccc3)s2)nnc1C1COc2ccccc2O1 (stereo not drawn)	·	-7
N#Cc1c(C(F)(F)F)cc(C2CC2)nc1SCCN1CCCCC1	-2.3	11
Cc1nc2ccc(S(=O)(=O)NC(CC(C)C)C(=O)N3CCN(c4ccccc4)CC3)cc2s1 (stereo not drawn)	·	-16
O=C1c2ccccc2S(=O)(=O)N1Cc1ccc2nonc2c1	5.2	·
COc1ccc(Nc2c3c(nc4ccc(NC(=O)C5CC5)cc24)CCCC3)cc1OC	-0.1	23
C/C(=N/NC(=O)Cc1cc(=O)[nH][nH]1)c1ccc(Cl)cc1	·	27
CCN(CC)C(=O)N1CCc2ccccc2C1CN1C(=O)c2ccccc2C1=O (stereo not drawn)	1.1	-5
CC(=O)Nc1ccc(C2=N/C(=C\c3cccs3)C(=O)O2)cc1	-1.7	·
O=C(Nc1cccnc1)c1cc2c(=O)[nH]c3ccccc3c2s1	1.1	3
CCOC(=O)C1=C(C)NC(=O)NC1c1ccccc1 (stereo not drawn)	-0.4&0.8	-1
CCC(=O)Nc1sc2c(c1C(=O)NC)CCC2	·	9
Cc1cccc(C)c1NC(=O)CC(NCc1ccco1)C(=O)O (stereo not drawn)	·	3
O=C(CSc1nnc(-c2ccc3c(c2)OCO3)o1)NC(=O)NC1CCS(=O)(=O)C1 (stereo not drawn)	·	20
O=C(Nc1ccccc1)Nc1csc2ccccc12	-0.9	·
CC(C)C(C)(C#N)NC(=O)CN1CCN(c2cccc(Cl)c2)CC1 (stereo not drawn)	·	-7
N#Cc1cc(Br)ccc1N=C1CCCN1c1cccc(Cl)c1	2.2	-9
Cc1ccc(-n2nc(C)c3c(C(F)(F)F)cc(-c4ccco4)nc32)cc1	·	-10
COc1ccc(N=C/C(Br)=C/c2ccccc2)cc1OC	-1.8	-13
FC(F)(F)c1cc(-c2ccc(Cl)cc2)nc2cc(C3CC3)nn12	-0.6	·

Looked up one by one from the list above, 2 records:
SMILES	MgrA DNA FP	S aureus helic
O=C(Nc1ccccc1)Nc1csc2ccccc12	-0.9	·
CC(C)C(C)(C#N)NC(=O)CN1CCN(c2cccc(Cl)c2)CC1 (stereo not drawn)	·	-7

(further entries)
SMILES	MgrA DNA FP	S aureus helic
Clc1c(Cl)c(Cl)c(-n2cccc2)c(Cl)c1Cl	-3.4	·
O=S(=O)(c1ccc(Br)cc1)N1CCCCCC1	-1.1	-2
Cc1nc2nc(SCC(=O)NC3CCCC(C)C3C)nn2c(C)c1Cc1ccccc1Cl (stereo not drawn)	4.3	13
CC(C)NC(=O)/C=C/c1cn(-c2ccccc2)nc1-c1cccs1	·	4
Cc1ccc(N2CC(=O)SC23CCCCC3)cc1	-2.5	2
CCNC(=O)c1ccc(Cn2nc(-n3cccc3)c3c(C)cc(C)nc32)cc1	·	10
Brc1cc2c(cc1CSc1ncccn1)OCCO2	·	-14
Cc1cc(/C=C2\SC(N)=NC2=O)c(C)n1C1CC1	·	-3
O=S(=O)(NNc1ccccn1)c1cccc(Cl)c1Cl	·	6
COc1ccc2cc(CCNC(=O)/C=C\c3ccccc3)c(=O)[nH]c2c1	·	1
COc1ccccc1-n1nnc(C(=O)N2CCCC2)c1N	-0.4	-15
COc1cccc(NC(=O)C23CCC(C)(C(=O)C2)C3(C)C)c1 (stereo not drawn)	-0.3	14
Cc1cc([N+](=O)[O-])ccc1S(N)(=O)=O	0.4	·
Cc1ccc(N2CC3=C(C2=O)C(c2ccccc2)NC(=O)N3C)cc1C (stereo not drawn)	-1.5	-3
CN(C)c1ccc(C(=S)c2ccc(N(C)C)cc2)cc1	0.5	·
O=C(CSc1nc2ccccc2o1)NCCOC12CC3CC(CC(C3)C1)C2	-1.8	10
O=C(Nc1ccc2c(c1)OCCO2)c1ccccc1F	1.4	11
Clc1nc(Cl)nc(NNc2nc(Cl)nc(Cl)n2)n1	5.5	-4
O=C1CCCc2cc(S(=O)(=O)N3CCCC3C(=O)N3CCc4ccccc43)ccc2N1 (stereo not drawn)	·	9
Cc1ccnc(NC(=O)Cn2c(=O)oc3cc(S(=O)(=O)N4CCc5ccccc54)ccc32)c1	·	6
c1ccc(-c2ncc(CSc3nnc(-c4cccs4)n3CC3CCCO3)s2)cc1 (stereo not drawn)	·	-10
CCC(=O)n1ccc(C(=O)N2CCOCC2)n1	6.0	-2
N#CCC(=O)N/N=C/c1c(-c2ccccc2)n(-c2ccccc2)c2ccccc12	·	4
O=S(=O)(Nc1cc(Br)c(O)c2ccccc12)c1ccc(Cl)cc1	10	2
CCc1nn(CC(=O)N(CC)Cc2ccccc2)c(=O)c2cc3sccc3n12	·	18
CCOC(=O)c1c(C)nn(-c2ncc(C(F)(F)F)cc2Cl)c1C	-0.6	·
O=C(Nc1cccc(Cl)c1)c1cc(-c2ccccc2)on1	2.0	-16
CC(C)(C)n1nnnc1C(c1cc2cc3c(cc2[nH]c1=O)OCO3)N(Cc1ccccc1)Cc1cccnc1 (stereo not drawn)	-0.2	-1
CCOC(=O)c1cnc2ccc(OCC)cc2c1N1CCN(c2ccccc2)CC1	-0.7	9
O=C(O)c1nccnc1C(=O)NC(c1ccccc1)c1ccccc1	-0.1	·
COc1nc(C#N)c(N(C)C)o1	·	16
CCC(CC)C(=O)c1c[nH]c(C(=O)NCc2cccs2)c1	-3.0	·
O=C(COC(=O)C1CCC(N2C(=O)C3C4C=CC(C4)C3C2=O)CC1)c1ccc(F)cc1 (stereo not drawn)	0.0	20
NC(=S)c1ccc(C(F)(F)F)cc1	-1.8	·
CCN(CC)C(=S)Nc1ccsc1C(=O)OC	0.2	6
CC(=O)Nc1cccc(C(=O)N/N=C/c2ccc(C)o2)c1	·	28
Cc1ccc(OCC(=O)NCC(=O)n2nc(C)cc2C)cc1	0.2	4
CCCCN(CC)C(=O)Cn1cnc2ccc(S(=O)(=O)N3CCC(C)CC3)cc2c1=O	-2.1	6
CN1CCc2c(OCC(=O)NCc3ccco3)cccc2C1=O	·	4
O=C(Cc1ccccc1)Nc1c2c(nn1-c1ccccc1)CSC2	·	15
Nc1cc(C(F)(F)F)cc2c1OCC(=O)N2	-0.1	-23
Cc1nc(C(=O)/C=C/N(C)C)cs1	-0.6	·
Clc1ccc(CNCc2cccnc2)cc1	-2.2&-0.8	·
CSc1ccc(Cl)c(C(=O)N2CCN(CC(=O)N3CCCC3)CC2)c1	·	-14
CCCCCC(C)n1[nH]c(=O)c2c(C)cc(=O)[nH]c21 (stereo not drawn)	·	-20
CCOc1ccc(NC(=O)c2cnccn2)cc1	-2.8	1
O=C(CSC1CCCC1)NCc1ccc2c(c1)OCO2	·	-5
O=C(O)CCCc1c[nH]c2ccccc12	0.0	12
COc1nc2ccccc2nc1OC	-0.7	3
CC1CCCC(C)N1C(=O)COC(=O)c1ccco1 (stereo not drawn)	1.8	-6
O=C(Oc1ccc2c(c1)OCO2)c1ccc(S(=O)(=O)C(F)F)cc1	·	2
O=C(CSc1ccccc1)Nc1ccccc1F	-0.4	-2
COC(=O)C(CCSC)NS(=O)(=O)c1cc(C(F)(F)F)cc(C(F)(F)F)c1 (stereo not drawn)	1.9	·
COC(=O)[C@H]1[C@H]2C[C@H]3c4[nH]c5ccccc5c4CCN3C[C@H]2CC[C@@H]1O	2.2	·
CCN(CC)C(=O)C12CC3CC(CC(C3)C1)C2	·	-36
CC(O)CNc1ccc(C(F)(F)F)cc1[N+](=O)[O-] (stereo not drawn)	-1.2	·
Cc1onc(-c2ccccc2Cl)c1C(=O)NC(C)(C)CCO	-1.9	·
c1cnc2c(CN3CCCCC3)cccc2c1	-0.2	8
CC(C#N)(Nc1ccccc1)c1ccc(F)cc1 (stereo not drawn)	0.5	·
CCCN1C(=O)/C(=N\OCC(=O)c2cc(C)n(Cc3cccs3)c2C)c2ccccc21	·	7

Quoted from the listing, 28 compounds:
SMILES	MgrA DNA FP	S aureus helic
O=C(COC(=O)C1CCC(N2C(=O)C3C4C=CC(C4)C3C2=O)CC1)c1ccc(F)cc1 (stereo not drawn)	0.0	20
NC(=S)c1ccc(C(F)(F)F)cc1	-1.8	·
CCN(CC)C(=S)Nc1ccsc1C(=O)OC	0.2	6
CC(=O)Nc1cccc(C(=O)N/N=C/c2ccc(C)o2)c1	·	28
Cc1ccc(OCC(=O)NCC(=O)n2nc(C)cc2C)cc1	0.2	4
CCCCN(CC)C(=O)Cn1cnc2ccc(S(=O)(=O)N3CCC(C)CC3)cc2c1=O	-2.1	6
CN1CCc2c(OCC(=O)NCc3ccco3)cccc2C1=O	·	4
O=C(Cc1ccccc1)Nc1c2c(nn1-c1ccccc1)CSC2	·	15
Nc1cc(C(F)(F)F)cc2c1OCC(=O)N2	-0.1	-23
Cc1nc(C(=O)/C=C/N(C)C)cs1	-0.6	·
Clc1ccc(CNCc2cccnc2)cc1	-2.2&-0.8	·
CSc1ccc(Cl)c(C(=O)N2CCN(CC(=O)N3CCCC3)CC2)c1	·	-14
CCCCCC(C)n1[nH]c(=O)c2c(C)cc(=O)[nH]c21 (stereo not drawn)	·	-20
CCOc1ccc(NC(=O)c2cnccn2)cc1	-2.8	1
O=C(CSC1CCCC1)NCc1ccc2c(c1)OCO2	·	-5
O=C(O)CCCc1c[nH]c2ccccc12	0.0	12
COc1nc2ccccc2nc1OC	-0.7	3
CC1CCCC(C)N1C(=O)COC(=O)c1ccco1 (stereo not drawn)	1.8	-6
O=C(Oc1ccc2c(c1)OCO2)c1ccc(S(=O)(=O)C(F)F)cc1	·	2
O=C(CSc1ccccc1)Nc1ccccc1F	-0.4	-2
COC(=O)C(CCSC)NS(=O)(=O)c1cc(C(F)(F)F)cc(C(F)(F)F)c1 (stereo not drawn)	1.9	·
COC(=O)[C@H]1[C@H]2C[C@H]3c4[nH]c5ccccc5c4CCN3C[C@H]2CC[C@@H]1O	2.2	·
CCN(CC)C(=O)C12CC3CC(CC(C3)C1)C2	·	-36
CC(O)CNc1ccc(C(F)(F)F)cc1[N+](=O)[O-] (stereo not drawn)	-1.2	·
Cc1onc(-c2ccccc2Cl)c1C(=O)NC(C)(C)CCO	-1.9	·
c1cnc2c(CN3CCCCC3)cccc2c1	-0.2	8
CC(C#N)(Nc1ccccc1)c1ccc(F)cc1 (stereo not drawn)	0.5	·
CCCN1C(=O)/C(=N\OCC(=O)c2cc(C)n(Cc3cccs3)c2C)c2ccccc21	·	7

Remaining list, next part.
SMILES	MgrA DNA FP	S aureus helic
O=[N+]([O-])c1cc(C(F)(F)F)cc([N+](=O)[O-])c1Oc1ccc(C(F)(F)F)cc1	1.5	·
CCOC(=O)c1cnc(Nc2nc(C(C)(C)C)cs2)nc1C	1.4	·
CCCc1cc(N2CCN(C(=O)c3ccco3)CC2)n2c(nc3ccccc32)c1C#N	·	19
CCN(CC)C(=O)CN(C)c1nc(-c2ccccc2)nc2ccccc12	·	10
CSc1nnc2c(n1)OC(C(=O)c1ccccc1)Nc1ccccc1-2 (stereo not drawn)	·	31
COc1cccc(CSc2nc3nccnc3c(=O)n2CCc2ccccc2)c1	0.1	4
O=C(Nc1cccnc1)Nc1cccc(C(F)(F)F)c1	·	-4
CCOc1ccccc1C(=O)NC(C(=O)O)C(C)C (stereo not drawn)	-3.8	10
CN1CCN(CCCNc2c(N)c(=O)oc3ccccc23)CC1	1.8	13
Cc1noc(C(F)(F)F)c1-c1nc(-c2ccccc2)no1	·	2
CCN1CCN(CC(=O)Nc2sc3c(c2C(=O)OC)CCC(C)C3)CC1 (stereo not drawn)	-2.5	10
CCOC(=O)c1csc(CS(=O)(=O)Cc2ccc(F)cc2)n1	-1.6	·
O/N=C/c1ccc(Cl)cc1	·	6
CC(C)(C)c1nc(-c2ccc(C(F)(F)F)cn2)no1	1.3	·
CCSc1nc(-c2ccc(OC)cc2)nc2c1c(=O)n(C)c(=O)n2C	·	4
O=S(=O)(Cc1ccccc1)c1ccc(Cl)c(Cl)c1	2.5	5
C=CCn1c(-c2ccc(OC)cc2)nc2ccccc21	·	14
O=C1c2ccccc2C(=O)N1O	·	16
Cn1c(C(Cc2ccccc2)NC(=O)c2cccs2)nc2ccccc21 (stereo not drawn)	·	15
Cc1ccc(Nc2nc3ccccc3n3c(N)nnc23)cc1C	·	-30
COc1ccc(CCNC(=O)c2cc(C)on2)cc1OC	·	24
N#CCSc1nc2c(sc3ccccc32)c(=O)n1C1CCCCC1	1.9	7
COc1ccc2cc(C#N)c(=O)oc2c1	5.9	-3
Cc1ccc2nc(NC(=O)C(NC(=O)c3ccccc3)C(C)C)sc2c1 (stereo not drawn)	3.1	-13
Cc1ccc(S(=O)(=O)NCCSc2nnnn2C)cc1	1.5	2
COC(=O)CSC1=C(C#N)C(c2ccc3c(c2)OCO3)C2=C(CCCC2=O)N1 (stereo not drawn)	·	6
O=c1[nH]c(CN2CCN(Cc3ccccc3)CC2)nc2ccccc12	0.0	2

This is a subset; count on the stated rates, not on these rows.
